# Mtb growth: M. tuberculosis H37Rv growth inhibitors, H37Rv strain (AID 1626); M. tuberculosis H37Rv growth inhibition; higher % means a stronger effect; one-dose inhibition, % at 10 µM; IC50 in µM for titrated hits; 220,000 tested, 0.95% active;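 active means confirmed in a dose series; inconclusive means inhibition above 80% but not taken into the dose series; inactive means below 80% or under 30% at every dose of the series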;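 further: bacteria incubated seven days before Alamar blue readout; 0% = bacteria only wells and 100% = bacteria with antibiotic wells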
# RecA splice inh: Mtb RecA intein splicing inhibition; P9WHJ3; cell-free RecA intein splicing, fluorescence; inhibition, %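 (about 9 µM by stock and volumes)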; 290,000 tested, 0.75% active; in the data active means inhibition above about 30%; inconclusive means no clear call, values can overlap the other calls;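 further: 0% = vehicle wells and 100% = reference inhibitor control wells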
# Target sequence (P9WHJ3 whole entry, looked up, canonical isoform): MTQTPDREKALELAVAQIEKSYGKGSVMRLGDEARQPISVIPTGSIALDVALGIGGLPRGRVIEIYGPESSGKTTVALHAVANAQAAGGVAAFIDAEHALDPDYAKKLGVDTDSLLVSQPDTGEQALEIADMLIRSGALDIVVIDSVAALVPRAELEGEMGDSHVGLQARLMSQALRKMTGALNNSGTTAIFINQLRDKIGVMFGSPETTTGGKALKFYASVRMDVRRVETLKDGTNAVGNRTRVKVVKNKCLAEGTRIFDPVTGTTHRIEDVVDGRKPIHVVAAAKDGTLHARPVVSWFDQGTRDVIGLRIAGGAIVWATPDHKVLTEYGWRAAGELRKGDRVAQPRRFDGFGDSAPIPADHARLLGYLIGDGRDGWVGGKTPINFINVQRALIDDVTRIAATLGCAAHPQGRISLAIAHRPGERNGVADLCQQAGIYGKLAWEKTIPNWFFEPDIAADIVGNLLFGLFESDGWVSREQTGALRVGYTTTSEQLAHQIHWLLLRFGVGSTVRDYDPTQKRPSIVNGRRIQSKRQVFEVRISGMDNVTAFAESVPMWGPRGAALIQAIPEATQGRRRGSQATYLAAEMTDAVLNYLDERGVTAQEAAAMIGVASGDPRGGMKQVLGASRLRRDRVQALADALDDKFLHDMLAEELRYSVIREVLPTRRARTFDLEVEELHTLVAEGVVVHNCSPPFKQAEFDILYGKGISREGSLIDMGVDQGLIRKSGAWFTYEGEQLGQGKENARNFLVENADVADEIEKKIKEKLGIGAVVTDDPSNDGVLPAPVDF
# Mtb betalactam: beta-lactam sensitization of Mtb H37Rv; M. tuberculosis H37Rv growth with meropenem, percent inhibition; hits of this screen are not shown here; inhibition, % at 25 µM; 330,000 tested, 0.27% active;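 active means about 74% or more and at least 40 points above the plate without the antibiotic, then above 30% in a dose series; inconclusive means first-round hits that could not be retested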;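 further: growth measured after seven days incubation then overnight dye step; 0% = bacteria only wells and 100% = bacteria with antibiotic; twin plates without the antibiotic show which effects depend on it; some results filed as inactive read as strong as hits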
# Arbovirus inh: blocks arbovirus infection; arbovirus infection cell-based antiviral screen; inhibition, % at 10 µM; 200,000 tested, 0.37% active; AID 1251;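 active means inhibition from about 30%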;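 further: bluetongue infection of BSR cells; cell survival read as ATP light after 72 h; 0% = infected wells without compound and 100% = uninfected wells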
# YopH inh: inhibitors of Yersinia enterocolitica YopH tyrosine phosphatase. fluorescence Ex485/Em525. 140,000 tested, 0.16% active. inhibition, %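 (about 10 µM by stock and volumes)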;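 active means inhibition of 50% or more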;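 further: controls were vehicle for no effect and minimum signal wells for full effect; inactives centre near -20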
# Arbovirus inh repeat: further read-out of Arbovirus inh, marked with its call; inhibition, %; measured here: 10K subset replicate screen; many hits read low in the repeat;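 first of two repeat runs on a subset; 0% = infected and 100% = uninfected wells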
# Active calls of the source: *; u = inconclusive; x = not tested or not shown.
SMILES,Mtb growth,RecA splice inh,Mtb betalactam,Arbovirus inh,YopH inh,others
COc1ccc(Br)cc1/C=N/NC(=O)CNC(=O)C1COc2ccccc2O1 (stereo not drawn),x,0.3,-11,x,x,
CSc1ccc(CN2C(=O)NC3(CCCCCCC3)C2=O)cc1,0%,0.4,-3,15,x,
Cc1nc2cc(-c3cccc(F)c3)nn2c(N2CCN(C(=O)c3ccco3)CC2)c1C,x,-0.5,56,2,-28,
Cc1cccc(C(=O)NCCNC(=O)c2ccco2)c1,x,0.7,3,x,x,
NS(=O)(=O)c1ccc(CCNC(=S)Nc2ccc(S(N)(=O)=O)cc2)cc1,-4%,1.4,0,-4,-23,
O=C(O)c1cccc(N/N=C/c2sc(N3CCOCC3)nc2-c2ccccc2)c1,-4%,-46,4,8,-10,
CC(C)Oc1cccc(C(=O)C2CCCN(Cc3cnc(N4CCOCC4)s3)C2)c1 (stereo not drawn),5%,-1.2,4,5,x,
CO/N=C/NC(=O)c1c(OC)ccnc1Oc1ccc(F)cc1,-10%,-0.3,12,9,-6,
Cc1ccc(Nc2nc(C)cs2)cc1,3%,-1.6,-4,-4,x,
O=C(CN1C(=O)/C(=C\c2ccc(C(F)(F)F)cc2)Sc2ccccc21)NCc1ccco1,-5%,-4.7,32,-1,-15,
CC1(C)CC(=O)C2=C(C1)Nc1[nH]n(-c3ccccc3)c(=O)c1C2c1ccc2c(c1)OCO2 (stereo not drawn),0%,69*,x,4,-38,
CCOC(=O)c1ccc(Cn2cnc3ccccc3c2=O)cc1,-9%,1.6,-3,14,3,
CCn1c(SCC(=O)c2cccs2)nnc1-c1ccco1,-18%,0.0,2,1,-34,
Cc1ccc(NC(=O)c2cc(-c3cccs3)on2)cc1,-2%,-0.8,-4,-5,4,
COCCCNC(=S)NC1CC2CCCC(C1)N2Cc1ccco1 (stereo not drawn),2%,3.0,4,-10,-33,
CSCCC(=O)N1CCCC(N2CCN(c3cccc(C(F)(F)F)c3)CC2)C1 (stereo not drawn),x,1.0,1,x,x,
CN1CCN(C(=O)c2ccc3c(c2)N(Cc2ccccc2F)C(=O)c2ccccc2S3=O)CC1 (stereo not drawn),x,0.5,-3,x,x,
COc1ccc(C)cc1NS(=O)(=O)c1ccc2c(c1)oc(=O)n2C,x,-0.5,5,x,x,
O=C(Nc1ccccc1)c1ccc(Br)c(S(=O)(=O)Nc2ccccn2)c1,x,-5.0,-4,x,x,
COc1cccc(-n2nc(C(C)=O)c(C#N)c2-c2ccco2)c1,6%,1.3,-8,-1,-9,
O=C1c2ccccc2S(=O)(=O)c2cc(N3CCC(C(=O)N4CCCCC4)CC3)ccc21,-8%,-8.9,-1,x,x,
COc1cccc(NC(=O)CC(=O)c2ccc([N+](=O)[O-])cc2)c1,x,3.8,2,x,x,
COc1ccccc1OCc1ccc(C(=O)N2N=C(C(F)F)CC2(O)C(F)F)o1 (stereo not drawn),x,0.0,10,-1,-21,
Cc1ccc(CNC(=O)C(=O)NCCC2CCCCN2S(=O)(=O)c2cccs2)cc1 (stereo not drawn),x,-2.2,-7,x,x,
Cc1cnc(NC(=O)CSc2ncn(-c3ccccc3)n2)s1,-17%,0.0,-15,-1,-14,
O=C(O)C1CCCCC1C(=O)OCCCCOC(=O)C1CCCCC1C(=O)O (stereo not drawn),1%,-1.0,-6,5,-44,
C=CCOc1ccccc1CN1CCC(CO)(CCOc2ccccc2)CC1,6%,0.2,-3,-6,x,
C/C(=N\Nc1ccc(C(=O)O)cc1)c1nc2ccccc2n1C,-9%,-1.9,19,3,-26,
OC(COc1c(Cl)cc(Cl)cc1Cl)CN1CCCCC1 (stereo not drawn),-2%,1.8,3,-3,-44,
CCc1ccc(C2CC(c3ccco3)=NN2S(C)(=O)=O)cc1 (stereo not drawn),-1%,x,-1,1,-13,
O=C(Nc1ccc2c(c1)C(=O)N(C1CCCCC1)C2=O)C1CCCO1 (stereo not drawn),1%,0.7,65,10,-15,
COCCN1CCN(Cc2cn(C)nc2-c2cccc(Cl)c2)CC1,-4%,4.8,-11,0,x,
O=C(NC(=S)Nc1ccc(CN2CCOCC2)cc1)c1cccc([N+](=O)[O-])c1,7%,-2.4,7,-3,16,
CCOC(=O)CC1CCCCN1C(=O)CCCn1nnnc1CN1CCC(C)CC1 (stereo not drawn),x,-0.4,u,x,x,
CNC(=O)CCC(=O)Nc1ccc(C(=O)OC)cc1,4%,0.8,3,-2,-50,
Cc1cnc(NC(=O)CN2CCN(c3ccccn3)CC2)s1,x,-1.6,-12,-10,-52,
N#Cc1ccc(OCC(=O)N2CCN(Cc3ccc4c(c3)OCO4)CC2)cc1,1%,0.4,-4,3,x,
c1ccc(SCCCCN2CCOCC2)cc1,x,2.7,0,x,x,
CCCC(=Nc1ccccc1OC)C1=C(O)CC(c2ccccc2)CC1=O (stereo not drawn),2%,-0.9,-2,-10,-25,
CCNC(=S)NNC(=O)c1csc2c1CCCC2,9%,0.0,-9,-1,-27,
CN(C)c1cccc(C(=O)NNC(=S)NC2CCCC2)c1,2%,-1.5,-1,-2,x,
COc1cc(-c2cc(C(=O)Nc3cccc(S(=O)(=O)N(C)C)c3)c3ccccc3n2)cc(OC)c1OC,x,3.2,-2,x,x,
COC(=O)C(NC(C)=O)(Nc1nc2c(C)cc(C)cc2s1)C(F)(F)F (stereo not drawn),-6%,-0.7,-8,-8,-13,
Cc1ccc(S(=O)(=O)NCCn2nc(C)cc2C)cc1,x,0.2,5,x,x,
N#CCn1c(C2CCCCC2)nc2ccccc2c1=O,-1%,5.0,47,14,-37,Arbovirus inh repeat=5
Cc1ccc2oc(-c3ccc(NC(=O)CC(C)C)cc3)nc2c1,6%,-2.3,-8,-5,-1,Arbovirus inh repeat=2
COc1cccc(C(=O)NCC(=O)N/N=C(\C)Cc2ccccc2)c1,x,-1.0,2,x,x,
Oc1ccc(C2C=C(c3ccc(F)cc3)Nc3ncnn32)cc1 (stereo not drawn),-6%,-351,x,x,x,
Cc1ccc(N2C(=O)C3CCC(C)(C2=O)C3(C)C)cc1 (stereo not drawn),-10%,x,0,x,x,
CCOc1c(Cl)cc(CNCCc2c[nH]c3ccccc23)cc1OC,5%,2.9,9,-31,x,
COCC(=O)Nc1cccc(-c2ccc3nncn3n2)c1,x,-0.4,8,x,x,
COC(=O)c1sccc1NC(=O)CN(C)NS(=O)(=O)c1ccc(Cl)cc1,1%,-2.0,-2,5,-23,
Cc1ccc(S(=O)(=O)CC(=O)NC2CC2)cc1,4%,-0.8,-7,2,-8,
CCN(c1ccccc1)S(=O)(=O)c1ccc(C(=O)Nc2ncccc2O)cc1,x,3.1,4,x,x,
N#CC(C#SN)=C1CCCCC1,5%,-12,-2,-6,-27,
CCOc1[nH]n(-c2ccccc2)c(=O)c1C=Nc1ccc(OC)cc1,>100µM*,0.3,98,-2,x,
O=C(O)c1cc(N2C(=O)CCC2=O)ccc1NCc1cccnc1,-7%,-2.1,-8,x,x,
CC1(C)Cc2noc(N)c2C(C)(C)N1OC(=O)c1scc2c1OCCO2,-5%,-2.6,-11,7,-45,
O=C(NCc1cccnc1)c1cccc(C(F)(F)F)c1,1%,-0.9,-10,8,22,
O=C(Nc1cccc(-c2cccc(F)c2)c1)C1CCN(C2CCOCC2)CC1,x,1.4,2,x,x,

# Further records
SMILES,Mtb growth,RecA splice inh,Mtb betalactam,Arbovirus inh,YopH inh,others
CCCC(=O)Nc1nc(-c2ccc3c(c2)CCN3S(C)(=O)=O)cs1,8%,2.5,-5,12,-3,
O=C(OCc1ccc([N+](=O)[O-])cc1)c1ccc2ccccc2n1,40%,2.6,96,x,x,
CN1CCN(C2=C(Cl)C(=O)N(c3cccc(Cl)c3)C2=O)CC1,-14%,22,-8,9,-58,Arbovirus inh repeat=5
CCSC1=C(C#N)C(c2ccccc2OC)CC(=O)N1 (stereo not drawn),-1%,-2.5,-4,3,7,Arbovirus inh repeat=-1
CN(C)/C=C1/N=C(c2ccccc2)OC1=O,0%,3.8,0,-11,-1,
Cc1ccc(-n2c(/C=C/c3ccc4c(c3)OCO4)nc3ccccc3c2=O)cc1,5%,-10,-1,-30,-5,
CC(C)[C@H](NS(=O)(=O)c1ccc2c(c1)OCCO2)C(=O)OCC(=O)Nc1cc(Cl)ccc1Cl,-9%,6.9,0,17,-10,
CCOC(=O)c1ccc(CNCc2ccc(Br)cc2)cc1,-1%,-3.0,-2,4,-14,
S=C(NCc1ccco1)Nc1cc(-c2ccccc2)[nH]n1,7%,1.3,15,4,x,
CCCc1nc2ccc(NC(C)=O)cc2c(=O)n1Cc1cccc(Cl)c1,x,-2.0,-2,x,x,
Cc1ccccc1C(=O)N1CCC(C(=O)O)CC1,-5%,0.3,-3,-4,-11,
CCOC(=O)N1CC=C2C(C#N)=C(N)C(C#N)(C#N)[C@H](c3ccccc3OCC)[C@H]2C1,-3%,11,-5,4,-32,
COC(=O)C(C(=O)OC)c1ccc(-n2cccc2)cc1,6%,-2.9,2,2,x,
O=C(CN1C(=O)S/C(=C\c2ccc(Cl)cc2)C1=O)NCCCn1ccnc1,x,5.2,9,x,x,
O=C1C2C3CC(C(Br)C3Br)C2C(=O)N1c1ccccn1 (stereo not drawn),-3%,-0.7,-2,2,-24,
CCCc1cc(C(=O)Nc2cc(C)nn2-c2ccccc2)no1,7%,1.8,1,-6,-50,
NS(=O)(=O)c1cccc(NC(=O)CSc2nc3ccc(Cl)cc3[nH]2)c1,-6%,16,-4,18,x,
Cc1nc(NC(C)c2ccccc2)c2oc3ccccc3c2n1 (stereo not drawn),9%,2.6,2,7,-29,
COc1ccc(CCN=C(N)NS(=O)(=O)c2cccs2)cc1,-6%,0.9,-4,16,x,
COc1ccc(Nc2nccc3c2nnn3C)cc1,-9%,1.6,3,-10,-4,
N#Cc1nc(COc2ccc(Br)cc2)oc1NCCCn1ccnc1,x,0.6,3,-6,-28,
CC(C)CCNC(=O)C1CCCN1C(=O)NC1CCCCC1 (stereo not drawn),-2%,x,-6,4,-1,
OC(Cn1cncn1)(c1ccccc1)c1ccccc1,-5%,-0.6,-8,7,-19,
Cn1c(N)c(C(=O)c2ccc(F)cc2F)c(=O)n(C)c1=O,-4%,1.0,2,-3,-6,
CCC1Oc2ccccc2N(CC(=O)NC2CCCC2)C1=O (stereo not drawn),x,-0.1,-2,x,x,
O=C(Nc1nnc(COc2ccccc2)s1)c1ccco1,-6%,-2.7,-8,-2,-6,
O=C(Nc1ccccc1C(=O)Nc1ccccn1)c1ccccc1F,x,1.0,0,x,x,
Cc1cc(C)cc(NC(=O)C2CCN(C(=O)[C@@H]3Cc4ccccc4CN3)CC2)c1,x,-0.3,0,x,x,
CCOc1cc(/C=N/NC(=O)c2cccnc2)ccc1O,-11%,-0.7,-1,x,x,
CN1CCN(C(=O)CSc2nc3ccc(NC(=O)c4ccccc4F)cc3s2)CC1,29%,-8.7,94,x,x,
Cc1cc(C)n(-c2ccc(C(=O)OCn3nnc4ccccc4c3=O)cc2)n1,55%,-0.7,100,3,-34,
CCc1ccc(N2C(=O)NC(=O)/C(=C\c3cccn3CCOc3ccc(C(C)C)cc3)C2=O)cc1,7%,0.4,4,-7,18,
COc1ccc(NC(=O)CCC(=O)c2cccs2)cc1S(=O)(=O)Nc1ccc(Cl)cc1,6%,3.0,0,2,-22,
CCCN1CCC(=O)N([C@H](CSc2ccc(Br)cc2)Cc2ccccc2)CC1,8%,2.2,9,x,x,
Cc1ccc(-c2ccnc(-c3ccc(O)cc3)n2)cc1,u,4.3,-8,13,x,
CC(OC(=O)C1=COCCO1)C(=O)Nc1ccc(Oc2ccccc2)cc1 (stereo not drawn),68%,0.2,85,-12,-19,

# Screening data deposited in PubChem BioAssay by several laboratories.

# Only part of the results is shown; count on the stated rates, not on these rows.
